# Assay outcomes (PubChem BioAssay)
# KCNQ1 inh – inhibitors of human KCNQ1 channel, primary screen, cell-based, thallium flux, high-throughput; CHO-K1 KCNQ1, FluxOR thallium flux fluorescence; stronger effect = higher value; B-score at 10 µM; 1.3% of 310,000 active;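 active means compounds whose thallium flux B-score, printed positive for inhibition, exceeds three library SD while starting fluorescence stays within three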;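 further: channel opened by potassium depolarization with thallium stimulus after 20 min compound exposure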
# ANO1 block – TMEM16A chloride channel inhibitors, primary screen, cell-based, HTS | HEK293 TMEM16A/YFP iodide influx fluorescence, ionomycin | normalized B-score (activity score, 25-100; higher = stronger inhibition) at 10 µM | 1.2% of 310,000 active | AID 588511, 2011;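 active means ratio plate-corrected score three or more library SD toward inhibition, starting fluorescence score within five deviations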;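 further: score derived from kinetic fluorescence span divided by baseline fluorescence per well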
# KCNK3 block – human KCNK3 channel inhibitors, primary screen, CHO cells, FluxOR thallium flux, B-score. FluxOR fluorescence; stronger effect = lower value. AID 602410, 2012. B-score at 10 µM. 0.84% of 340,000 active;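 active means B-score under library mean minus 4 SD, starting fluorescence ratio at most library mean plus 5 SD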;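 further: more negative B-score means stronger inhibition of thallium flux through KCNK3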
# Target sequence (O14649 whole entry, looked up): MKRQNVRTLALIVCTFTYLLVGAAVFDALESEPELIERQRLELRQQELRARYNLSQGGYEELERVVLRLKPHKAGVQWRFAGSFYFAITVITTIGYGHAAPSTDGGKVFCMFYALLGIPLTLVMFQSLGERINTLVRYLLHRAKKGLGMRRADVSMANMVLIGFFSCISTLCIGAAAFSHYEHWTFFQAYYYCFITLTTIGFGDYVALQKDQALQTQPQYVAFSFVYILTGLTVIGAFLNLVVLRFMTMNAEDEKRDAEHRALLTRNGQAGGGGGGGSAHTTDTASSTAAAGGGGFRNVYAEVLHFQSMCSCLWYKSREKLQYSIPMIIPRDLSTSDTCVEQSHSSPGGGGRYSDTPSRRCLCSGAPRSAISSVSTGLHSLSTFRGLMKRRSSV
# KCNK9 inh – KCNK9 potassium channel inhibitors, primary screen, HEK293 cells, thallium flux | B-score at 10 µM | 1.2% of 310,000 active | Potassium channel subfamily K member 9 (Homo sapiens), Q9NPC2 | FluxOR thallium flux fluorescence; stronger effect = lower value;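 active means ratio B-score over 3 SD below the library mean, with starting fluorescence within 5 SD of its mean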;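 further: negative B-score means less thallium flux so channel inhibition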
# RGS4 pot – RGS4 potentiators or activators, primary screen, cell-based, HEK293 M3R inducible RGS4, calcium flux; carbachol calcium flux Fluo4; stronger effect = lower value; B-score at 10 µM; 0.92% of 310,000 active; AID 463111, 2010;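 active means B-score of the integrated calcium signal more than 4 SD below the library mean, with starting fluorescence not abnormally high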;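 further: negative B-score means reduced calcium response which marks RGS4 activation or potentiation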
#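 System: HEK293 FlpIn-TREx cells, stable M3R, doxycycline-inducible RGS4. Timing: overnight RGS4 induction, 30 min dye load 37 °C, 20 min compound RT. Also added: carbachol, ECmax concentration. Measured by: Fluo4 fluorescence kinetic imaging of calcium. Evaluation: integrated calcium ratio converted to B score.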
# MrgX1 agonist – agonists of human MrgX1 receptor, primary screen, HEK293 cells, Fluo-4 calcium flux; Fluo-4 calcium fluorescence, agonist mode; stronger effect = higher value; B-score at 10 µM; 0.44% of 310,000 active; AID 588627, 2011;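 active means calcium response B-score plate-corrected fluorescence ratio at least 3 library SD, with starting fluorescence B-score inside 5 SD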
# Target sequence (Q96LB2 whole entry, looked up): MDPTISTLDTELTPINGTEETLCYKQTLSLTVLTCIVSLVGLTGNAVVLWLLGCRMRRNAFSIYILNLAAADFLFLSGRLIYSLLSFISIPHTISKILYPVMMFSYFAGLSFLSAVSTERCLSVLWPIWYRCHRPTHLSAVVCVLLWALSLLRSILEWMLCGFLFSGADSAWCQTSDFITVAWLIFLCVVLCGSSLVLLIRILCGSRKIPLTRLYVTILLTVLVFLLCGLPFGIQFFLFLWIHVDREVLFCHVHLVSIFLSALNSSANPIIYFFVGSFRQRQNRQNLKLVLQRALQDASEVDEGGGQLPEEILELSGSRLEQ
#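 times = overnight plating, then 30 min 37 °C plus 30 min room-temperature dye loading | assay system = stable human MrgX1 HEK293 cell line | input = fifteen thousand cells per well | signal = kinetic calcium dye fluorescence, Fluo-4 NW | dosing = compound delivered in addition one of three | read-out = B-scored fluorescence response ratio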
# RGS4 block – RGS4 inhibitors, primary screen, cell-based, HEK293 M3R inducible RGS4, calcium flux; B-score at 10 µM; Fluo-4 calcium flux; stronger effect = higher value; triggered by carbachol at its EC20; 0.45% of 310,000 active; Regulator of G-protein signaling 4 (Homo sapiens), P49798;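 active means B-score, a plate-corrected calcium signal, over three deviations above library mean, with baseline fluorescence within five deviations of library mean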;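 further: RGS4 expression induced by doxycycline in cells with stable M3 receptor; B-score is computed from the integrated fluorescence ratio over baseline after carbachol; higher B-score means a larger calcium signal and so more RGS4 inhibition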
# Target sequence (P49798 whole entry, looked up): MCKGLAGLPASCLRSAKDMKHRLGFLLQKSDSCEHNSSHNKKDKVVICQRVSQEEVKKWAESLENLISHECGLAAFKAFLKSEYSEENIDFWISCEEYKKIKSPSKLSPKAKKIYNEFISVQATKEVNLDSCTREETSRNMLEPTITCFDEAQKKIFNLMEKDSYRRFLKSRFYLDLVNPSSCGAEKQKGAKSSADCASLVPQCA
# ANO1 activ – TMEM16A chloride channel activators or potentiators, primary screen, cell-based, HTS; B-score at 10 µM; HEK293 TMEM16A/YFP-H148Q/I152L, iodide quench fluorescence; stronger effect = lower value; AID 623877, 2012; 0.3% of 340,000 active; Anoctamin-1 (Mus musculus), Q8BHY3;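 active means fluorescence-ratio B-score plate-corrected deviation score at least 3 library SD below zero, with starting fluorescence score within 5 deviations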;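 further: channel opened by trigger with iodide after compound preincubation; score built on the fluorescence ratio of max minus min over baseline; more negative score means more quench and so TMEM16A activation or potentiation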
# MrgX1 allo act – positive allosteric modulators of MrgX1, primary screen, HEK293 cells, Fluo-4 calcium flux; FDSS; stronger effect = higher value; B-score at 10 µM; 0.63% of 310,000 active;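 active means plate-corrected calcium response at least 3 library SD above typical, normal starting fluorescence, not activating the receptor alone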;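 further: compound read alongside a low EC10 to EC30 dose of BAM8-22 agonist; peak minus trough fluorescence over baseline measured at the second addition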
# KCNQ1 pot – potentiators or activators of KCNQ1 channel, primary screen, cell-based, thallium flux, high-throughput; CHO-K1 KCNQ1, thallium flux FluxOR fluorescence; stronger effect = higher value; B-score at 10 µM; 0.35% of 310,000 active; AID 2648, 2010;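 active means fluorescence ratio B-score, a plate-corrected score, at least three library SD, with initial intensity B-score within 5 SD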
#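 Doses: Single concentration per compound, DMSO matched to controls | Test system: KCNQ1-transfected CHO-K1 cells | Timing: 90 min dye loading and 20 min compound exposure, both at room temperature | Measured by: Kinetic FluxOR thallium fluorescence, 10-s 1-Hz baseline, 110-s post-stimulus read | Medium: Assay buffer with matched DMSO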
# The depositor's hits bear a star; i = inactive; nt = no result given. A portion of the library, so the mix of outcomes need not match the whole.
item	SMILES	KCNQ1 inh	ANO1 block	KCNK3 block	KCNK9 inh	RGS4 pot	MrgX1 agonist	RGS4 block	ANO1 activ	MrgX1 allo act	KCNQ1 pot
1	CC(C)CN(C(=O)COC(=O)c1cc2ccccc2oc1=O)C1CCS(=O)(=O)C1 (configuration not stated)	i	nt	nt	i	i	nt	i	nt	nt	i
2	COC(=O)c1[nH]c2ccc(C)cc2c1NC(=O)CN1CCN(Cc2ccccc2)CC1	i	i	i	i	i	i	i	i	i	i
3	O=C(Cn1cccc1)NCc1cccs1	i	i	i	i	i	i	i	i	i	i
4	Cc1cccc(NC(=O)c2cc(-c3ccc(C)c(C)c3O)n[nH]2)c1	i	i	i	i	i	i	i	i	i	i
5	COC(=O)c1ccc(CNC(=O)CSc2nc3sc(C)c(C)c3c(=O)n2C)o1	i	i	i	i	-8.2*	i	i	i	i	i
6	CC1=C(/C=C/C(C)=C/C=C/C(C)=C\C(=O)O)C(C)(C)CCC1	i	i	i	i	i	i	i	i	i	i
7	COCC(=O)O[C@]1(CCN(C)CCCc2nc3ccccc3[nH]2)CCc2cc(F)ccc2[C@@H]1C(C)C	i	i	i	i	i	i	i	i	i	i
8	CN(C)c1ccc(O)c2c1CC1CC3C(N(C)C)C(=O)C(C(N)=O)=C(O)[C@@]3(O)C(=O)C1=C2O (some centres not stated)	i	i	i	i	i	i	i	i	i	i
9	CCN(CC)CCOc1ccc(/C(=C(\Cl)c2ccccc2)c2ccccc2)cc1	11*	i	i	i	i	i	i	i	i	i
10	Fc1ccc(N2CCN(Cc3ccccn3)CC2)cc1	i	i	i	i	i	i	i	i	i	i
11	COc1cc(CN2CCc3ccccc3C2)ccc1O	i	i	i	i	i	i	i	i	i	i
12	CC[C@H](CO)NCCN[C@H](CC)CO	i	i	i	i	i	i	i	i	i	i
13	O=C(O)COc1ccc(/C=C/c2nc3ccc([N+](=O)[O-])cc3s2)cc1	i	i	i	i	i	i	i	i	i	i
14	CCOc1ccc(NC(C)=O)cc1	i	i	i	i	i	i	i	i	i	i
15	CN(C)C(CNc1nnnn1-c1ccccc1)c1ccco1 (configuration not stated)	i	i	i	i	i	i	i	i	i	i
16	NC(=O)CC(NC(=O)Cc1ccc(Br)cc1)c1ccc(NCCc2ccc(Cl)cc2)c([N+](=O)[O-])c1 (configuration not stated)	i	nt	i	i	i	nt	i	i	nt	i
17	CN1CCN2c3ncccc3Cc3ccccc3[C@@H]2C1	i	i	i	i	i	i	i	i	i	i
18	CCN(CC)Cc1cc(Nc2ccnc3cc(Cl)ccc23)ccc1O	i	i	i	i	i	i	i	i	i	i
19	Cn1nc(C(=O)NNC(=O)c2ccc(Cl)cc2)ccc1=O	i	i	i	i	i	i	i	i	i	i
20	COc1ccccc1CN1C[C@@H]2C[C@@H](c3ccc(C)c(C)c3)N3CCC[C@@]23C1=O	i	i	i	i	i	i	i	i	i	i
21	CC1(C)S[C@@H]2[C@H](NC(=O)Cc3ccccc3)C(=O)N2[C@H]1C(=O)O	i	i	i	i	i	i	i	i	i	i
22	CCCCc1oc2ccccc2c1C(=O)c1cc(I)c(OCCN(CC)CC)c(I)c1	i	i	i	i	i	i	i	i	i	i
23	COc1ccc2c(c1OC)C(=O)O[C@@H]2[C@H]1c2c(cc3c(c2OC)OCO3)CCN1C	i	i	i	i	i	i	i	i	i	i
24	O=C(Cn1cncn1)NCc1ccccc1Br	i	i	i	i	i	i	i	i	i	i
25	CCN(CC)CCNC(=O)c1ccc(NC(C)=O)cc1	i	i	i	i	i	i	i	i	i	i
26	O=C(CCCn1c(=S)[nH]c2cc3c(cc2c1=O)OCO3)N1CCN(c2ccc(Cl)cc2)CC1	i	i	i	i	i	i	i	i	i	i
27	CS(=O)(=O)n1nc(-c2ccccc2)nc1N	i	i	i	i	i	i	i	i	i	i
28	CNCC[C@H](Oc1ccc(C(F)(F)F)cc1)c1ccccc1	nt	i	i	nt	nt	i	nt	i	i	nt
29	COc1cc(OC)c(OC)cc1CN(C)C(c1ccccc1)c1nnnn1-c1ccccc1C (configuration not stated)	i	i	i	i	i	i	i	i	i	i
30	Clc1ccc2c(c1)C(N1CCNCC1)=Nc1ccccc1O2	i	i	i	i	i	i	i	i	i	i
31	O=C(O)[C@@H](O)[C@H](O)C(=O)O	i	i	i	i	i	i	i	i	i	i
32	CCCCc1nc(Cl)c(CO)n1Cc1ccc(-c2ccccc2-c2nn[nH]n2)cc1	i	i	i	i	i	i	i	i	i	i
33	CC(=O)OCC(=O)[C@@]12OC(C)(C)O[C@@H]1C[C@H]1[C@@H]3C[C@H](F)C4=CC(=O)C=C[C@]4(C)[C@@]3(F)[C@@H](O)C[C@@]12C	i	i	nt	i	i	i	i	nt	i	i
34	O=C1CCC(NC(=O)c2ccccc2)C(=O)N1 (configuration not stated)	i	i	i	i	i	i	i	i	i	i
35	Cc1ccc(-c2csc3ncn(CC(=O)OC(C)C)c(=O)c23)cc1	i	i	i	i	i	i	i	i	i	i
36	Cc1cc(=O)[nH]c(/N=C(\N)Nc2ccc(Oc3ccccc3)cc2)n1	i	i	i	i	i	i	i	i	i	i
37	COCCc1ccc(OCC(O)CNC(C)C)cc1 (configuration not stated)	i	i	i	i	i	i	i	i	i	i
38	CO/N=C(\C(=O)N[C@@H]1C(=O)N2C(C(=O)O)=C(COC(C)=O)CS[C@H]12)c1csc(N)n1 (stereo in doubt)	i	i	i	i	i	i	i	i	i	i
39	COCCNC(=O)[C@H]1N2C(=O)c3ccccc3C2SC1(C)C (some centres not stated)	i	i	i	i	i	i	i	i	i	i
40	Cn1ncc(Br)c1C(=O)O	i	i	i	i	i	i	i	i	i	i
41	O=C1N(c2ccc3c(c2)OCCO3)C(c2ccccc2)C1(F)F (configuration not stated)	i	i	i	i	i	i	i	i	6.9*	i
42	CC(C)(C)[C@]1(O)CCN2C[C@H]3c4ccccc4CCc4cccc(c43)[C@@H]2C1	i	i	i	i	i	i	i	i	i	i
43	Cc1ccc(C)c(N2N=C(C(=O)NCCN3C(=O)S/C(=C\c4cccnc4)C3=O)CCC2=O)c1	i	i	i	i	i	i	i	i	i	i
44	CN1CCN2c3ccccc3Cc3ccccc3C2C1 (configuration not stated)	i	i	i	i	i	i	i	i	i	i
45	CCc1c(C)[nH]c2c1C(=O)C(CN1CCOCC1)CC2 (configuration not stated)	i	i	i	i	i	i	i	i	i	i
46	O=C1CC2(CCCC2)CC(=O)N1CCCCN1CCN(c2ncccn2)CC1	i	i	i	i	i	i	i	i	i	i
47	Cc1ccc(Cn2c(SCC(=O)NCC3CCCO3)nc3c(sc4ccccc43)c2=O)cc1 (configuration not stated)	i	i	i	i	i	i	i	i	i	i
48	Cc1cccc(N/N=C(\C(N)=O)C2=NC(C)(C)Cc3ccccc32)c1	i	i	i	i	i	i	i	i	13*	i
49	NCCOc1ccc(C2CCCCC2)cc1	i	i	i	i	i	i	i	i	i	i
50	CCN(CC)S(=O)(=O)c1cc(NS(=O)(=O)c2cccc(Cl)c2)ccc1C	i	25*	i	i	i	i	i	i	i	i

# Part of the list above, with each value named.
34: O=C1CCC(NC(=O)c2ccccc2)C(=O)N1 (configuration not stated)
  KCNQ1 inh = i	ANO1 block = i	KCNK3 block = i	KCNK9 inh = i	RGS4 pot = i	MrgX1 agonist = i	RGS4 block = i	ANO1 activ = i	MrgX1 allo act = i	KCNQ1 pot = i

31: O=C(O)[C@@H](O)[C@H](O)C(=O)O
  KCNQ1 inh = i	ANO1 block = i	KCNK3 block = i	KCNK9 inh = i	RGS4 pot = i	MrgX1 agonist = i	RGS4 block = i	ANO1 activ = i	MrgX1 allo act = i	KCNQ1 pot = i

# (listing goes on)
item	SMILES	KCNQ1 inh	ANO1 block	KCNK3 block	KCNK9 inh	RGS4 pot	MrgX1 agonist	RGS4 block	ANO1 activ	MrgX1 allo act	KCNQ1 pot
51	O=C1O[C@@H]([C@H](O)CO)C(O)=C1O	i	i	i	i	i	i	i	i	i	i
52	COc1ccc(C(=O)OCC(=O)NC(C)(C)C)cc1[N+](=O)[O-]	i	i	i	i	i	i	i	i	i	i
53	CCOc1ccc(Cl)cc1/C=N/O	i	i	i	i	i	i	i	i	i	i
54	CCN(CC)CCOC(=O)C1(C2CCCCC2)CCCCC1	i	i	i	i	i	i	i	i	i	i
55	Cc1ccc(C)c(S(=O)(=O)NC(C)CCc2ccccc2)c1 (configuration not stated)	i	i	i	i	i	i	i	i	i	i
56	O=C(NC(CO)C(O)c1ccc([N+](=O)[O-])cc1)C(Cl)Cl (configuration not stated)	i	i	i	i	i	i	i	i	i	i
57	Cc1ccnc(NS(=O)(=O)c2ccc(N)cc2)n1	i	i	i	i	i	i	i	i	i	i
58	Nc1c2c(nc3ccccc13)CCCC2	i	i	i	i	i	i	i	i	i	i
59	COc1ccc(Cl)cc1NC(=O)c1cc(S(=O)(=O)N2CCCC2)cn1C	i	i	i	i	i	i	i	i	i	i
60	Cc1ccc2c(c1)c(Sc1ccccc1)c(CC(=O)O)n2C	i	i	i	i	i	i	i	i	i	i
61	O=C(Nc1ccncc1)c1ccc(-c2ccccc2)cc1	i	i	i	i	i	i	i	i	i	i
62	OC[C@@H](O)[C@@H](O[C@@H]1O[C@H](CO)[C@H](O)[C@H](O)[C@H]1O)[C@H](O)[C@@H](O)CO	i	i	i	i	i	i	i	i	i	i
63	O=C(CCSCCc1ccncc1)NCCCN1CCOCC1	i	i	i	i	i	i	i	i	i	i
64	O=C(O)COc1ccc(/C=N/Nc2nc(Nc3ccccc3)nc(N3CCCCC3)n2)cc1	i	i	i	i	i	i	i	i	i	i
65	CCc1cccc2c3c([nH]c12)C(CC)(CC(=O)O)OCC3 (configuration not stated)	i	i	i	i	i	i	i	i	i	i
66	CS(=O)(=O)Nc1nc2n(n1)C(c1ccccc1)CC(c1ccccc1)N2 (configuration not stated)	i	i	i	i	i	i	i	i	i	i
67	COC(=O)c1ccccc1NC(=S)NC(=O)COc1ccc(C)cc1	i	i	i	i	i	i	i	i	i	i
